Ecoli rRNA inh: inhibits bacterial ribosomal RNA function over humanized ribosomes. E. coli WT GFP vs humanized-ribosome RFP mutants, fluorescence, 24 h; stronger effect = lower value; DMSO median 0, no signal -100. AID 720706. GFP signal change (wild-type ribosome), % (test concentration not listed). actives 1.6% (n = 350,000);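 active means significant combined selectivity score with lowered wild-type GFP, culture density cut under 30%, mutant RFP and density less affected; inactive means any of these conditions unmet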; further: one replicate is shown; some compounds called inactive have numbers as strong as hits
AF4-AF9 inh: blocks AF4 peptide binding to human AF9; AlphaScreen, biotin-AF4 peptide binding to FLAG-AF9; inhibition, % at 10 µM; actives 0.47% (n = 350,000);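 active means every replicate reaching a set inhibition limit, whatever the replicate mean, cut at about 25% in these data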;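 further: 0% = plate neutral control median and 100% = total signal loss; the record names both 10 and 1 µM as test concentration; the first replicate is given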
Target sequence (P42568 whole entry, looked up): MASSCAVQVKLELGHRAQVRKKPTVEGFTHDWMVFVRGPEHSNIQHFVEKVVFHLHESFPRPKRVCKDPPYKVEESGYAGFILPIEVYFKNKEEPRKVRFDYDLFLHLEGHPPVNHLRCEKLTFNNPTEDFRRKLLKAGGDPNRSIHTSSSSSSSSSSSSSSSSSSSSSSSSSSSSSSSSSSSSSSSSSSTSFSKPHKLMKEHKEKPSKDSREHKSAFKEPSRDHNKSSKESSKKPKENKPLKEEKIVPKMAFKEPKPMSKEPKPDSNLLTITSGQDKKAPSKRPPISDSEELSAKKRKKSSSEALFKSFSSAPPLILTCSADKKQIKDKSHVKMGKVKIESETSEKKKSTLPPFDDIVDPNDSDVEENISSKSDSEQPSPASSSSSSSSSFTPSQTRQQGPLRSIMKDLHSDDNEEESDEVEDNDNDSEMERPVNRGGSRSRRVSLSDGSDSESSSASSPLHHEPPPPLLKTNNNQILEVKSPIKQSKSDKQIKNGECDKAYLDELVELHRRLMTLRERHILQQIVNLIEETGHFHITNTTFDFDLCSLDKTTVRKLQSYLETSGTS
FGF22 binding: binders of recombinant human FGF22 by thermal shift | Q9HCT0 | SYPRO orange fluorescence; percent of sucrose octasulfate shift, DMSO zero | calls only at 9.99 µM | actives 1.5% (n = 340,000) | AID 651658;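 active means melting point raised past a set limit in the mean and every replicate; three in four hits are not shown here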
Target sequence (Q9HCT0 whole entry, looked up): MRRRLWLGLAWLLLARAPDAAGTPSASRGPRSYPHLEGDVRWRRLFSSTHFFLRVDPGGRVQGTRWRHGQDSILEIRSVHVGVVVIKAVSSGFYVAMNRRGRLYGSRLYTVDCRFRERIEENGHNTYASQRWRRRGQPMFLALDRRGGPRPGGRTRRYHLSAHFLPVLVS
Ecoli rRNA inh OD600: recorded beside Ecoli rRNA inh, whose call it bears; OD600 change, %; measured here: OD600 growth;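 optical density of the mix in the first replicate; 0 = DMSO median and -100 = no signal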
Ecoli rRNA inh RFP: second read-out of Ecoli rRNA inh, no call of its own (marks repeat the call); RFP signal change, %; measured here: RFP humanized mutant strains;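 first replicate; 0 = DMSO median and -100 = no signal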
The depositor's hits bear a star; i = inactive; + = active, no number; & = joins results of further samples. A portion of the library; count on the stated rates, not on these rows.

cpd	mol	Ecoli rRNA inh	Ecoli rRNA inh OD600	Ecoli rRNA inh RFP
1	Oc1ccc(C[C@H]2CNC(=S)N2C[C@H]2CCCN2C[C@H](Cc2ccccc2)N2C[C@H](Cc3ccccc3)N(CC3CCCCC3)C2=S)cc1	5	11	-3.7
2	O=C(Nc1nnc([C@@H]2C[C@H](O)[C@@H](CO)O2)s1)Nc1ccc(F)cc1F	5	9	2.4
3	Cn1c(NCc2ccccc2F)nc2cc(-c3cccc(Cl)c3)sc2c1=O	17	30	1.0
4	CC1(C(=O)NS(=O)(=O)C2CC2)CCN(C(=O)c2cc3ccccc3s2)C1 (centres undefined)	2	4	-0.1
5	O=C(Nc1ccccc1F)N1CCCCN2[C@H](CO)[C@@H](c3ccc(C#Cc4ccccc4)cc3)[C@H]2C1	-59	-60	-3.1
6	COc1ccc2c3c([nH]c2c1)[C@@H](CO)N(C(=O)Nc1ccc(F)cc1)CC31CCN(S(=O)(=O)c2cccs2)CC1	-2	2	0.0
7	CC(=O)N1CC2(C1)[C@H](c1ccccc1)[C@H](CO)N2Cc1cccc(Cl)c1	-7	-5	0.4
8	C[C@H](CO)N1C[C@H](C)[C@H](CN(C)S(=O)(=O)c2ccc(C#N)cc2)Oc2ncc(C#CC(C)(C)O)cc2C1=O	7	12	-2.0
9	C[C@@H]1CN([C@H](C)CO)C(=O)CCCn2nncc2CO[C@@H]1CN(C)C(=O)Nc1ccc(N2CCCCC2)cc1	5&1	6&6	3.9&5.6
10	C[C@@H]1CN([C@H](C)CO)S(=O)(=O)c2ccc(Br)cc2O[C@H]1CN(C)CC1CCOCC1	-9	-7	2.9
11	O=C(C[C@@H]1CC[C@H](NC(=O)Nc2ccccc2)[C@@H](CO)O1)NCc1cccc(F)c1	2	5	-2.7
12	COC(=O)[C@H]1[C@H](CO)[C@H]2Cn3c(ccc(-c4ccc(F)cc4)c3=O)[C@H]2N1S(C)(=O)=O	-3	2	0.7

cpd	AF4-AF9 inh	FGF22 binding
1	4.0	i
2	-2.8	i
3	3.5	i
4	-1.9	i
5	8.0	i
6	1.7	i
7	1.3	i
8	-3.1	i
9	8.6&13&-7.1	i
10	3.6&1.2	i
11	-3.5	i
12	1.3	i

Continuation.
cpd	mol	Ecoli rRNA inh	Ecoli rRNA inh OD600	Ecoli rRNA inh RFP
13	CCC(=O)N1CC2(CN(C(=O)NC(C)C)C2)c2c(n(C)c3cc(OC)ccc23)[C@@H]1CO	5	14	-3.2
14	CCc1nc2c(OCc3ccc(C#N)cc3)cccn2c1N(C)C(=O)c1cccs1	8	-7	3.2
15	CC(=O)N1[C@@H]2c3ccc(-c4ccc(F)cc4)c(=O)n3C[C@@H]2[C@@H](CO)[C@@H]1C(=O)NC1CCC1	1	2	-3.4
16	C[C@@H]1CN([C@@H](C)CO)C(=O)c2cc(NC(=O)NC3CCCCC3)ccc2O[C@@H]1CN(C)S(=O)(=O)c1ccccc1	2	-6	-2.4
17	O=C(C[C@@H]1C[C@H]2c3cc(NC(=O)C4CCOCC4)ccc3O[C@H]2[C@H](CO)O1)NCCc1ccccc1	0	-8	1.5
18	COc1ccc(Cl)cc1Nc1cc(C)nc2ncnn12	13	15	-1.1
19	C[C@H](CO)N1C[C@H](C)[C@@H](CN(C)Cc2ccc(-c3ccccc3)cc2)Oc2cc(C#CC(C)(C)O)ccc2S1(=O)=O	-1	1	-0.5
20	CO[C@H]1CN(C)C(=O)c2cc(NC(=O)Nc3ccccc3F)ccc2OC[C@@H](C)N(Cc2ccccc2C(=O)O)C[C@H]1C	6	-2	-1.1
21	C[C@@H]1CN([C@@H](C)CO)S(=O)(=O)c2ccc(C3=CCCC3)cc2O[C@@H]1CN(C)C(=O)Nc1ccc2c(c1)OCO2	-3	-8	3.5
22	O=C(Nc1ccc2c(c1)[C@@H]1C[C@@H](CC(=O)N3CCOCC3)O[C@H](CO)[C@@H]1O2)Nc1ccccc1F	1	-6	-1.3
23	CN(C)C(=O)c1cccc(-c2ccc([C@H]3[C@H](CO)N4CCCCN(Cc5cccnc5)C[C@@H]34)cc2)c1	2	3	1.5
24	CCCOc1ccc(F)cc1-c1cc(C(=O)Nc2cc(OC)ccc2OC)[nH]n1	6	12	-3.3

cpd	AF4-AF9 inh	FGF22 binding
13	5.7	i
14	3.4	i
15	0.6	i
16	0.2	i
17	-0.7	i
18	3.4	i
19	0.4	i
20	-0.1	i
21	4.7	+
22	1.6	i
23	0.2	i
24	-3.4	i

Four compounds picked at random from the list so far:
cpd	mol	Ecoli rRNA inh	Ecoli rRNA inh OD600	Ecoli rRNA inh RFP
23	CN(C)C(=O)c1cccc(-c2ccc([C@H]3[C@H](CO)N4CCCCN(Cc5cccnc5)C[C@@H]34)cc2)c1	2	3	1.5
14	CCc1nc2c(OCc3ccc(C#N)cc3)cccn2c1N(C)C(=O)c1cccs1	8	-7	3.2
21	C[C@@H]1CN([C@@H](C)CO)S(=O)(=O)c2ccc(C3=CCCC3)cc2O[C@@H]1CN(C)C(=O)Nc1ccc2c(c1)OCO2	-3	-8	3.5
20	CO[C@H]1CN(C)C(=O)c2cc(NC(=O)Nc3ccccc3F)ccc2OC[C@@H](C)N(Cc2ccccc2C(=O)O)C[C@H]1C	6	-2	-1.1

cpd	AF4-AF9 inh	FGF22 binding
23	0.2	i
14	3.4	i
21	4.7	+
20	-0.1	i

Other records follow:
cpd	mol	Ecoli rRNA inh	Ecoli rRNA inh OD600	Ecoli rRNA inh RFP
25	C[C@H](CO)N1C[C@H](C)[C@H](CN(C)C(=O)Nc2ccc(C(F)(F)F)cc2)Oc2ccc(NC(=O)C3CC3)cc2CC1=O	2	1	-0.5
26	COc1ccc(-c2ccc3c(c2)O[C@@H](CN(C)C(C)=O)[C@@H](C)CN([C@H](C)CO)S3(=O)=O)cc1	-1	6	-1.6
27	Cc1ccccc1-c1cnc2c(c1)C(=O)N([C@@H](C)CO)C[C@@H](C)[C@@H](CN(C)C(=O)c1ccc(F)cc1)O2	-1	2	2.1
28	C[C@H]1CCCCO[C@@H](CN(C)Cc2ccccc2)[C@@H](C)CN([C@@H](C)CO)C(=O)c2cc(NC(=O)Nc3cccc4ccccc34)ccc2O1	1	-3	5.4
29	CN(C)CC(=O)N[C@@H]1CC[C@@H](CCNS(=O)(=O)c2ccccc2)O[C@@H]1CO	0&19	-1&7	-0.8&0.2
30	N#C[C@@H]1[C@@H](c2ccc(C3=CCCCC3)cc2)[C@@H](CO)N1S(=O)(=O)c1ccccc1	-4	-32	-1.3
31	COCC(=O)Nc1ccc2c(c1)C(=O)N(C)C[C@H](OC)[C@H](C)CN(Cc1ccccc1OC)[C@H](C)CO2	1	-2	-0.5
32	O=C(COC(=O)c1ccc(S(=O)(=O)N2CCCCCC2)cc1)Nc1ccccc1C(F)(F)F	3	10	-2.8
33	O=C1NC[C@H](CCCCN2C[C@H](Cc3ccccc3)N(CC3CCCCC3)C(=O)C2=O)N(CCc2ccc(O)cc2)C1=O	-21*	-10*	4.6*
34	O=C(C[C@@H]1CC[C@@H]2[C@H](COC[C@H](O)CN2C(=O)c2ccc3c(c2)OCO3)O1)NC1CCCC1	2	18	-3.7
35	COc1cccc(-c2cc3nc(Nc4ccc(OC)c(OC)c4)n(C)c(=O)c3s2)c1	-6	-5	-0.8
36	COC(=O)[C@@]12C[C@@H](CC(=O)NCCc3ccccc3OC)C(=O)N(Cc3ccccc3)C1=CCC(C)(C)C2	-2	0	-0.3

cpd	AF4-AF9 inh	FGF22 binding
25	-4.9	i
26	-3.1	i
27	-6.7	i
28	2.9	i
29	-0.7&1.1	i
30	3.8	i
31	2.9	i
32	-5.2	i
33	1.0	i
34	1.2	i
35	3.1	i
36	3.7	i

(continued)
cpd	mol	Ecoli rRNA inh	Ecoli rRNA inh OD600	Ecoli rRNA inh RFP
37	Cc1cccc(CN(C)C[C@@H]2Oc3ncc(-c4cc5ccccc5o4)cc3C(=O)N([C@H](C)CO)C[C@@H]2C)c1	-33	-52	22
38	CCS(=O)(=O)N1CC2(CN(Cc3ccccc3F)[C@H](CO)c3c2c2ccc(OC)cc2n3C)C1	-4	-26	2.3
39	COc1ccccc1Cc1c(-c2ccc(C)cc2)nc2cc(C)c(Br)c(C)n12	-3	11	1.0
40	CO[C@@H]1CN(C)C(=O)c2ccc(NC(=O)C3CCC3)cc2OC[C@H](C)N(Cc2cccnc2)C[C@@H]1C	-2	-4	-3.8
41	CCCNC(=O)C[C@H]1CC[C@H]2[C@@H](COc3ccc(NC(=O)Nc4ccccc4F)cc3C(=O)N2C)O1	-4	-2	-0.1
42	CSCCC1NC(=O)C(C(C)=Nc2ccccc2)=C1O (centres undefined)	5	8	-0.6
43	COc1ccc(NC(=O)N(C)C[C@H]2OCCCC[C@@H](C)Oc3ccc(NC(=O)Nc4ccc5c(c4)OCO5)cc3C(=O)N([C@@H](C)CO)C[C@H]2C)cc1	-3	0	-2.3
44	COc1ccc(CN(C)C[C@H]2Oc3ccc(NS(=O)(=O)c4ccc(OC)cc4)cc3CC(=O)N([C@H](C)CO)C[C@H]2C)cc1	4	-4	5.9
45	COc1ccc(CN(C)C[C@H]2Oc3ccc(NS(=O)(=O)c4ccc(C)cc4)cc3C(=O)N([C@H](C)CO)C[C@H]2C)cc1	2	-7	-2.3
46	Cc1cccc(-c2ccc([C@H]3[C@H](CO)N4CCCCN(CCC(F)(F)F)C[C@@H]34)cc2)c1	-59	-79	-12
47	Cc1noc(C)c1S(=O)(=O)Nc1cccc2c1O[C@H](CN(C)S(=O)(=O)c1cn(C)cn1)[C@H](C)CN([C@@H](C)CO)C2=O	4	4	-2.1
48	CN1C(=O)c2cc(NC(=O)c3cnccn3)ccc2OC[C@@H]2O[C@@H](CC(=O)O)CC[C@@H]21	-3	4	-3.0

cpd	AF4-AF9 inh	FGF22 binding
37	9.4	i
38	-2.5	i
39	0.2	i
40	0.7	i
41	-0.3	i
42	-7.6	i
43	5.5	i
44	1.8	i
45	-5.5	i
46	14	i
47	-2.6	i
48	-0.1	i

The list goes on.
cpd	mol	Ecoli rRNA inh	Ecoli rRNA inh OD600	Ecoli rRNA inh RFP
49	O=C(NCc1nnnn1-c1ccc(Cl)cc1)c1ccc2c(c1)OCO2	6	5	-2.3
50	O=C(CC(F)(F)F)N1C[C@@H]2[C@H](c3ccccc31)[C@@H](CO)N2C(=O)Cc1cccnc1	7	10	0.2
51	CC(C)CC#Cc1ccc2c(c1)O[C@H](CN(C)S(=O)(=O)c1cccc(F)c1)[C@@H](C)CN([C@@H](C)CO)S2(=O)=O	-2	12	1.0
52	Cc1ccc(S(=O)(=O)N(C)C[C@@H]2Oc3c(NC(=O)c4cc(C)nn4C)cccc3C(=O)N([C@@H](C)CO)C[C@H]2C)cc1	1	2	-3.3
53	C[C@@H]1CCCCO[C@H](CN(C)C(=O)Nc2ccc(F)cc2)[C@H](C)CN([C@@H](C)CO)C(=O)c2cc(NC(=O)CCCN(C)C)ccc2O1	-1	8	-3.1
54	COCC(=O)Nc1ccc2c(c1)OC[C@@H](C)N(Cc1cc(F)ccc1F)C[C@@H](C)[C@H](OC)CN(C)C2=O	-6	-3	4.0
55	C[C@H]1CN([C@@H](C)CO)C(=O)Cc2cc(NC(=O)CCCCCC(=O)Nc3ccccc3N)ccc2O[C@H]1CN(C)Cc1ccc(Oc2ccccc2)cc1	-4	-1	3.6
56	C[C@@H]1CN([C@@H](C)CO)C(=O)c2cc(NC(=O)Nc3ccc(C(F)(F)F)cc3)ccc2O[C@@H]1CN(C)C(=O)NC1CCCCC1	-4	-36	-5.4
57	O=C(NCCS(=O)(=O)N1CCN(c2ccccc2)CC1)C1CCCCC1	4	3	1.4
58	COc1ccc2c3c([nH]c2c1)[C@H](CO)N(S(C)(=O)=O)CC31CN(CC2CC2)C1	-1	1	-0.6
59	C[C@@H]1CN([C@@H](C)CO)C(=O)c2cc(-c3cncnc3)cnc2O[C@H]1CN(C)Cc1ccncc1	0	-2	-1.1
60	C[C@H]1CN([C@@H](C)CO)C(=O)Cc2cc(NC(=O)Nc3cccc4ccccc34)ccc2O[C@H]1CN(C)Cc1ccc2c(c1)OCO2	-5	-8	8.4

cpd	AF4-AF9 inh	FGF22 binding
49	-1.9	i
50	-1.1	i
51	0.1	i
52	-13	i
53	0.8	i
54	0.4	i
55	3.2	i
56	0.2	i
57	-0.4	i
58	2.4	i
59	-2.8	i
60	0.0	i

Additional records follow:
cpd	mol	Ecoli rRNA inh	Ecoli rRNA inh OD600	Ecoli rRNA inh RFP
61	C[C@@H]1CCCCO[C@H](CN(C)S(C)(=O)=O)[C@@H](C)CN([C@H](C)CO)C(=O)c2cc(N(C)C)ccc2O1	2	13	-0.7
62	CO[C@H]1CN(C)C(=O)c2ccc(NC(=O)Nc3ccccc3)cc2OC[C@@H](C)N(C(C)=O)C[C@@H]1C	0	-4	0.6
63	COc1ccc2c3c([nH]c2c1)[C@H](CO)N(C(=O)Nc1ccccc1F)CC31CCN(C(C)=O)CC1	-1	-6	1.8
64	C[C@H](CO)N1C[C@H](C)[C@@H](CN(C)Cc2cccnc2)Oc2cc(C#CCN(C)C)ccc2S1(=O)=O	-4	1	-0.5

cpd	AF4-AF9 inh	FGF22 binding
61	-27	i
62	-1.2	i
63	-3.1	i
64	-0.5	i
